Source: PubChem BioAssay
MLL AF4-AF9 inh – inhibitors of human MLL-AF4/AF9 interaction. P42568. AlphaScreen, biotin-AF4 peptide binding to FLAG-AF9. inhibition, % at 10 µM. 0.47% of 350,000 active;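 active = every replicate reaching a set inhibition limit, whatever the replicate mean, cut at about 25% in these data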;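 also: 0% = plate neutral control median and 100% = total signal loss; the record names both 10 and 1 µM as test concentration; the first replicate is given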
Target sequence (P42568 whole entry, looked up): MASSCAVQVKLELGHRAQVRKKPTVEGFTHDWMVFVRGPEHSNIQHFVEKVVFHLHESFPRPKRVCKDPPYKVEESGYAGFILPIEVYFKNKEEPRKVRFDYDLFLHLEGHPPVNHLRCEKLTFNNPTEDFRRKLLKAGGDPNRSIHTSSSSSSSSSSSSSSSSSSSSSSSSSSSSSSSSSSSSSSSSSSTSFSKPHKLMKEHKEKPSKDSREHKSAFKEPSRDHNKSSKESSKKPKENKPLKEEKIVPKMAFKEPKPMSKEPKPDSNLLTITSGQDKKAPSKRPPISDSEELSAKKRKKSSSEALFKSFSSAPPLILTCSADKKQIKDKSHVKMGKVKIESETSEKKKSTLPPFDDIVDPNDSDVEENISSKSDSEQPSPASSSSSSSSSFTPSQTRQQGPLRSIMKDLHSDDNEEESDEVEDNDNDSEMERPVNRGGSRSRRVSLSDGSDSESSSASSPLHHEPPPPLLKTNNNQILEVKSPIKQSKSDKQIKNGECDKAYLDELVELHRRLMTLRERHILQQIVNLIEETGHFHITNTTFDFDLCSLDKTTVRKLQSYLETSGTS
Ecoli rRNA inh – inhibitors of bacterial rRNA selective over humanized ribosomes | GFP signal change (wild-type ribosome), % (no concentration beside the values) | 1.6% of 350,000 active | E. coli WT GFP vs humanized-ribosome RFP mutants, fluorescence, 24 h; hits give low values; DMSO median 0, no signal -100;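 active = significant combined selectivity score with lowered wild-type GFP, culture density cut under 30%, mutant RFP and density less affected; inactive = any of these conditions unmet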; also: one replicate is shown; some compounds called inactive have numbers as strong as hits
Ecoli rRNA inh OD600 – also measured in Ecoli rRNA inh; calls as there; OD600 change, %; measured here: OD600 growth;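 optical density of the mix in the first replicate; 0 = DMSO median and -100 = no signal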
Ecoli rRNA inh RFP – further read-out of Ecoli rRNA inh, marked with its call; RFP signal change, %; measured here: RFP humanized mutant strains;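 first replicate; 0 = DMSO median and -100 = no signal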
* hit, by the source's call; & = joins results of further samples.

1: C[C@@H]1CCCCO[C@H](CN(C)Cc2ccc(C(=O)O)cc2)[C@H](C)CN([C@@H](C)CO)C(=O)c2cc(NC(=O)Nc3ccccc3)ccc2O1
2: C[C@@H]1CN([C@H](C)CO)C(=O)c2cc(NC(=O)Nc3ccc(C(F)(F)F)cc3)ccc2O[C@@H](C)CCCCO[C@@H]1CN(C)CC1CCCCC1
3: CCCNC(=O)C[C@@H]1CC[C@@H]2[C@H](COC[C@H](O)CN2C(=O)c2cccnc2)O1
4: C[C@@H]1CCCCO[C@H](CN(C)C(=O)CCCN(C)C)[C@@H](C)CN([C@H](C)CO)C(=O)c2cc(NC(=O)CCC(F)(F)F)ccc2O1
5: COCCN1C(=O)CCC1(C)C(=O)Nc1ccc2c(c1)OCCO2 (configuration not stated)
6: C[C@H](CO)N1C[C@H](C)[C@@H](CN(C)C)Oc2ccc(NS(=O)(=O)c3ccc(F)cc3)cc2C1=O
7: CO[C@@H]1CC[C@H]2CCN(C)C(=O)CCCN(C)C(=O)c3cccc(C#N)c3OC[C@@H]1O2
8: COC(=O)C1=C(C)N(Cc2cccc(C(F)(F)F)c2)C(=NCc2ccc3c(c2)OCO3)NC1c1cccc(Cl)c1 (configuration not stated)

assay / entry | 1 | 2 | 3 | 4 | 5 | 6 | 7 | 8
MLL AF4-AF9 inh | -9.1 | -5.2 | -3.6 | -4.0 | -1.9 | -1.9 | 2.9 | 5.1
Ecoli rRNA inh | -2 | -6 | 0 | 2 | 13 | 3 | -1 | -56
Ecoli rRNA inh OD600 | 0 | 9 | 4 | 3 | 2 | 6 | 4 | -79
Ecoli rRNA inh RFP | -1.9 | -4.1 | -1.0 | -1.6 | 2.1 | -1.2 | -4.0 | -17

9: C/C=C/c1ccc(C2[C@@H]3CN(C(=O)Cc4ccccc4)C[C@H]2N3)cc1 (some centres not stated)
10: CCCC(=O)N1CCC2(CC1)CN(C(=O)Nc1cccc(F)c1)[C@@H](CO)c1c2c2ccc(OC)cc2n1C
11: COc1ccc2c3c(n(C)c2c1)[C@H](CO)N(C)CC31CN(C(=O)NC(C)C)C1
12: CCC(=O)N(C)C[C@@H]1Oc2cc(C#CC3CC3)ccc2S(=O)(=O)N([C@@H](C)CO)C[C@@H]1C
13: Cc1ccc(S(=O)(=O)Nc2ccc3c(c2)C(=O)N([C@H](C)CO)C[C@@H](C)[C@H](CN(C)C(=O)C2CCCCC2)OCCCC[C@@H](C)O3)cc1
14: O=C(CN1CCC(NC(=O)C2CCCCC2)CC1)Nc1ccccc1
15: COc1ccc(S(=O)(=O)N(C)C[C@H]2Oc3ncc(/C=C/c4ccccc4)cc3C(=O)N([C@@H](C)CO)C[C@@H]2C)cc1
16: O=C(Nc1ccccc1F)N1C[C@H]2[C@@H](c3ccccc31)[C@H](CO)N2C(=O)C1CCCCC1

assay / entry | 9 | 10 | 11 | 12 | 13 | 14 | 15 | 16
MLL AF4-AF9 inh | -0.6&3.1 | 1.5 | 1.7 | -10 | 4.7 | -2.2 | 5.3 | 1.3
Ecoli rRNA inh | 6&1 | -2 | 3 | 1 | -2 | 1 | -6 | -3
Ecoli rRNA inh OD600 | 20&-9 | -9 | 10 | 3 | -14 | 5 | 1 | 5
Ecoli rRNA inh RFP | -1.6&-1.1 | 7.6 | -2.5 | 3.6 | 2.4 | -0.7 | 0.7 | 0.9

17: CC(C)C#Cc1cnc2c(c1)C(=O)N([C@@H](C)CO)C[C@@H](C)[C@H](CN(C)C(=O)c1cccc(F)c1)O2
18: CN1c2ccc(-c3cccc(F)c3)cc2[C@H]2[C@H](CCN2S(=O)(=O)c2cccc(F)c2)[C@@H]1CO
19: COc1ccc(CCNC(=O)Nc2nnc([C@H]3C[C@H](O)[C@@H](CO)O3)s2)cc1OC
20: O=C(Nc1ccccc1Cl)c1cc(C2CCCCN2C(=O)CCCc2ccccc2)on1 (configuration not stated)
21: Cc1noc(C)c1NC(=O)N[C@@H]1C=C[C@@H](CC(=O)NCc2ccc(Cl)c(Cl)c2)O[C@@H]1CO
22: C[C@H](CO)N1C[C@H](C)[C@H](CN(C)S(=O)(=O)c2cn(C)cn2)Oc2ncc(-c3ccccc3)cc2C1=O
23: CCCN1[C@H](C(=O)N2CCOCC2)[C@@H](CO)[C@@H]2Cn3c(ccc(-c4ccncc4)c3=O)[C@@H]21
24: C[C@@H]1CN([C@@H](C)CO)C(=O)Cc2cc(NC(=O)Cc3cn(C)c4ccccc34)ccc2O[C@@H]1CN(C)S(C)(=O)=O

assay / entry | 17 | 18 | 19 | 20 | 21 | 22 | 23 | 24
MLL AF4-AF9 inh | 0.0 | 7.3 | 5.1 | 7.9 | -1.4 | -0.7 | -4.0 | 0.2
Ecoli rRNA inh | 1 | -3 | 19 | 8 | 0 | 0 | -1 | 1
Ecoli rRNA inh OD600 | 0 | 10 | 22 | 15 | -1 | 16 | 2 | 2
Ecoli rRNA inh RFP | -3.0 | 2.0 | 1.2 | 3.7 | -2.1 | -3.4 | -3.7 | -2.3

25: Cc1ccc(S(=O)(=O)Nc2ccc3c(c2)C(=O)N([C@@H](C)CO)C[C@H](C)[C@@H](CN(C)S(C)(=O)=O)O3)cc1
26: CC(C)C#Cc1ccc2c(c1)O[C@H](CN(C)C)[C@H](C)CN([C@@H](C)CO)S2(=O)=O
27: COc1ccccc1CNC(=O)C[C@@H]1CC[C@H]2[C@@H](COC[C@H](O)CN2C(=O)Nc2ccccc2)O1
28: COc1ccccc1CN1[C@H](CO)[C@H]2c3ccccc3N(C(=O)c3ccncc3)C[C@H]21
29: COc1ccccc1C#Cc1cnc2c(c1)C(=O)N([C@H](C)CO)C[C@@H](C)[C@H](CN(C)C(=O)CC1CC1)O2
30: CN(C)C(=O)c1cccc(-c2ccc([C@@H]3[C@H](CO)N4C(=O)CN(C(=O)C5CCC5)C[C@@H]34)cc2)c1
31: COc1ccc(Cc2c(C3CCCCC3)nc3c4ccccc4ccn23)c(C)c1
32: O=C(N[C@H]1CC[C@H](CCNC(=O)C2CCCCC2)O[C@H]1CO)c1ccncc1

assay / entry | 25 | 26 | 27 | 28 | 29 | 30 | 31 | 32
MLL AF4-AF9 inh | -3.0 | -1.2 | -0.1 | -0.3 | 0.7 | -0.5 | 1.8 | 0.0
Ecoli rRNA inh | 1 | 3 | 0 | 3 | -2 | 10 | 4 | 1
Ecoli rRNA inh OD600 | 6 | 5 | 17 | 7 | 3 | 2 | 8 | 0
Ecoli rRNA inh RFP | 0.6 | -3.9 | -8.3 | 0.5 | -0.9 | -3.6 | 1.9 | 0.5

33: CC(C)NC(=O)Nc1ccc2c(c1)CC(=O)N([C@H](C)CO)C[C@H](C)[C@H](CN(C)Cc1ccc(C(F)(F)F)cc1)O2
34: CN(C)C(=O)c1ccc(-c2ccc([C@H]3[C@@H](CO)N4C(=O)CN(C(=O)C5CCCC5)C[C@@H]34)cc2)cc1
35: C[C@H](CO)N1C[C@H](C)[C@H](CN(C)C(=O)Nc2ccc(F)cc2)Oc2ccc(NC(=O)Cc3ccccc3)cc2C1=O
36: Cc1c(C(=O)N2CCCC(C)(C(=O)NS(=O)(=O)C3CC3)C2)oc2ccccc12 (configuration not stated)
37: CC(C)NC(=O)N(C)C[C@H]1Oc2ccc(NC(=O)CCC(F)(F)F)cc2C(=O)N([C@@H](C)CO)C[C@@H]1C
38: C[C@H]1CN([C@@H](C)CO)C(=O)c2cc(-c3cccc(C#N)c3)cnc2O[C@@H]1CN(C)C(=O)c1cnccn1
39: CC(=O)Nc1ccc(C(=O)CSc2nnc(-c3ccccc3F)n2CCc2ccccc2)cc1
40: C[C@@H]1CCCCO[C@H](CN(C)C(=O)c2ccccc2)[C@@H](C)CN([C@H](C)CO)C(=O)c2cc(NS(=O)(=O)c3cccs3)ccc2O1

assay / entry | 33 | 34 | 35 | 36 | 37 | 38 | 39 | 40
MLL AF4-AF9 inh | 1.6 | -5.7 | -0.1 | -1.4 | -4.1 | -1.0 | 12 | 0.7
Ecoli rRNA inh | -4 | 3 | -6 | 2 | 4 | -1 | -35* | 1
Ecoli rRNA inh OD600 | -3 | 19 | -5 | 10 | 0 | -4 | -26* | 4
Ecoli rRNA inh RFP | -1.2 | -0.8 | -1.5 | 1.1 | -2.2 | -3.6 | -0.6* | 0.5

41: C[C@@H]1CCCCO[C@H](CN(C)C(=O)CCC(F)(F)F)[C@H](C)CN([C@@H](C)CO)C(=O)c2cc(NS(=O)(=O)c3ccc(F)cc3)ccc2O1
42: CC(=O)N(C)C[C@H]1Oc2cc(-c3cncnc3)ccc2S(=O)(=O)N([C@@H](C)CO)C[C@H]1C
43: C[C@H]1CN([C@@H](C)CO)C(=O)c2cc(-c3ccc(C#N)cc3)cnc2O[C@@H]1CN(C)CC1CCCC1
44: C[C@@H]1CCCCO[C@@H](CN(C)C(=O)NC2CCCCC2)[C@H](C)CN([C@@H](C)CO)C(=O)c2cc(NS(=O)(=O)c3cccs3)ccc2O1
45: Cc1ccc(-c2ccc3c(c2)O[C@H](CN(C)C(=O)C2CCC2)[C@H](C)CN([C@H](C)CO)S3(=O)=O)cc1
46: O=C(NCc1ccccn1)[C@@H]1[C@@H](CO)[C@@H]2Cn3c(cccc3=O)[C@@H]2N1CCc1ccccc1
47: C[C@H](CO)N1C[C@H](C)[C@H](CN(C)CC2CC2)OCc2ccccc2-c2c(n(C)c3ccccc23)C1=O
48: CCC(C)CN1C(=O)CSCC1(C)C(=O)NC(C)C (configuration not stated)

assay / entry | 41 | 42 | 43 | 44 | 45 | 46 | 47 | 48
MLL AF4-AF9 inh | 6.7 | -3.6 | -2.8 | -1.8 | 3.5 | -1.3 | -2.6 | -0.1
Ecoli rRNA inh | -2 | 4 | 3 | -14 | -12 | 0 | 0 | 14
Ecoli rRNA inh OD600 | -2 | 18 | 3 | -18 | -39 | 2 | -3 | 10
Ecoli rRNA inh RFP | -1.4 | -4.7 | -1.6 | -0.8 | 16 | -0.5 | 0.6 | -1.5

49: NC(CCc1ccccc1)c1csc(Nc2nncc3ccccc23)n1 (configuration not stated)
50: COc1ccc2c3c(n(C)c2c1)[C@@H](CO)N(C(=O)c1ccccn1)CC31CCN(C(=O)c2ccccn2)CC1
51: C/C=C/c1ccc([C@@H]2[C@H](CO)N(C(C)=O)[C@H]2CNC(=O)c2ccncc2)cc1
52: C[C@@H]1CCCCO[C@H](CN(C)C(=O)c2ccncc2)[C@H](C)CN([C@@H](C)CO)C(=O)c2cc(NC(=O)c3ccncc3)ccc2O1
53: COc1ccc(NC(=O)Nc2ccc3c(c2)C(=O)N([C@H](C)CO)C[C@H](C)[C@@H](CN(C)C(=O)Nc2ccc4c(c2)OCO4)OCCCC[C@@H](C)O3)cc1
54: CC(C)CC#Cc1ccc2c(c1)O[C@H](CN(C)C(=O)c1ccccc1)[C@@H](C)CN([C@H](C)CO)S2(=O)=O
55: C[C@H](CO)N1C[C@H](C)[C@H](CN(C)C(=O)Nc2ccc3c(c2)OCO3)Oc2ccc(NC(=O)CCCCCC(=O)Nc3ccccc3N)cc2CC1=O
56: COc1ccc(NC(=O)Nc2ccc3c(c2)[C@@H]2C[C@@H](CC(=O)NCC(F)(F)F)O[C@@H](CO)[C@@H]2O3)cc1

assay / entry | 49 | 50 | 51 | 52 | 53 | 54 | 55 | 56
MLL AF4-AF9 inh | 1.9 | -1.5 | 1.7 | -2.9 | 2.8 | 4.4 | -0.2 | 4.0
Ecoli rRNA inh | -29 | -1 | -1 | 2 | 0 | -7 | 4 | -5
Ecoli rRNA inh OD600 | -38 | -2 | 3 | 6 | 0 | -3 | 8 | -9
Ecoli rRNA inh RFP | -3.2 | -3.2 | 0.1 | -2.5 | -2.6 | 2.4 | -1.1 | -0.6

57: Cc1cc(C(=O)Nc2ccc3c(c2)C(=O)N(C)[C@@H]2CC[C@@H](CC(=O)N[C@H](C)c4ccccc4)O[C@H]2CO3)no1
58: Cc1noc(C)c1S(=O)(=O)N(C)C[C@@H]1OCCCC[C@@H](C)Oc2ccc(NC(=O)Nc3cccc4ccccc34)cc2C(=O)N([C@H](C)CO)C[C@H]1C
59: COCCNC(=O)C[C@H]1CC[C@H]2[C@@H](COC[C@@H](O)CN2C(=O)Nc2ccccc2OC)O1
60: CC(C)C(=O)Nc1ccc2c(c1)C(=O)N(C)[C@@H]1CC[C@H](CC(=O)NCc3ccccc3)O[C@@H]1CO2
61: C[C@@H]1CN([C@H](C)CO)C(=O)c2cc(NC(=O)CCC(F)(F)F)ccc2O[C@H]1CN(C)Cc1ccc(Cl)c(Cl)c1
62: C[C@@H]1CCCCO[C@H](CN(C)C(=O)C2CCCCC2)[C@@H](C)CN([C@H](C)CO)C(=O)c2cc(NC(=O)CCCCCC(=O)Nc3ccccc3N)ccc2O1

assay / entry | 57 | 58 | 59 | 60 | 61 | 62
MLL AF4-AF9 inh | -1.2 | -1.7 | -6.6 | -10 | 4.3 | -3.0
Ecoli rRNA inh | -2 | 4 | 1 | 4 | -11 | 0
Ecoli rRNA inh OD600 | -1 | 9 | 7 | -2 | -51 | 3
Ecoli rRNA inh RFP | 1.2 | 1.9 | -2.7 | 2.7 | 31 | -0.7

Complete entries, quoted from the list:
C[C@@H]1CN([C@H](C)CO)C(=O)c2cc(NC(=O)CCC(F)(F)F)ccc2O[C@H]1CN(C)Cc1ccc(Cl)c(Cl)c1 as listed: MLL AF4-AF9 inh: 4.3; Ecoli rRNA inh: -11; Ecoli rRNA inh OD600: -51; Ecoli rRNA inh RFP: 31
COCCNC(=O)C[C@H]1CC[C@H]2[C@@H](COC[C@@H](O)CN2C(=O)Nc2ccccc2OC)O1 as listed: MLL AF4-AF9 inh: -6.6; Ecoli rRNA inh: 1; Ecoli rRNA inh OD600: 7; Ecoli rRNA inh RFP: -2.7

This is a subset (hit frequency here may not be typical).
